GLA inh pH 4.5 = blocks human alpha-galactosidase A at pH 4.5; P06280; purified enzyme, 4-MU-alpha-Gal fluorescence, pH 4.5; activity change, negative = inhibition, % at 105 µM; 230,000 tested, under 10 active; AID 1467; inconclusive = small, poorly fitted or top-dose-only inhibition, or a rising curve; inactive = flat fitted curve, though single readings scatter; no compound was filed as active;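 also: 0% = full activity with enzyme and -100% = basal without enzyme; dose as in the result columns while the protocol names 77 µM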
Rango complex inh = prevents formation of the Rango-importin beta complex. Rango CFP/YFP FRET sensor + importin beta, 45 min. Q14974. AID 540263. Potency, µM (top dose mostly 92.2 µM), inactives show at the top dose inhibition of complex formation. actives 0.031% (n = 340,000); active = rising FRET ratio curve, often small or poorly fitted; inconclusive = mostly compound fluorescence or quenching in the first reads; inactive = flat curves in all reads;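 also: potency is read from the fitted curve at half-maximal effect; 0% = DMSO wells and 100% = buffer wells lacking importin beta; nearly all actives have a fitted effect of over 15% in size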
Target sequence (Q14974 whole entry, looked up): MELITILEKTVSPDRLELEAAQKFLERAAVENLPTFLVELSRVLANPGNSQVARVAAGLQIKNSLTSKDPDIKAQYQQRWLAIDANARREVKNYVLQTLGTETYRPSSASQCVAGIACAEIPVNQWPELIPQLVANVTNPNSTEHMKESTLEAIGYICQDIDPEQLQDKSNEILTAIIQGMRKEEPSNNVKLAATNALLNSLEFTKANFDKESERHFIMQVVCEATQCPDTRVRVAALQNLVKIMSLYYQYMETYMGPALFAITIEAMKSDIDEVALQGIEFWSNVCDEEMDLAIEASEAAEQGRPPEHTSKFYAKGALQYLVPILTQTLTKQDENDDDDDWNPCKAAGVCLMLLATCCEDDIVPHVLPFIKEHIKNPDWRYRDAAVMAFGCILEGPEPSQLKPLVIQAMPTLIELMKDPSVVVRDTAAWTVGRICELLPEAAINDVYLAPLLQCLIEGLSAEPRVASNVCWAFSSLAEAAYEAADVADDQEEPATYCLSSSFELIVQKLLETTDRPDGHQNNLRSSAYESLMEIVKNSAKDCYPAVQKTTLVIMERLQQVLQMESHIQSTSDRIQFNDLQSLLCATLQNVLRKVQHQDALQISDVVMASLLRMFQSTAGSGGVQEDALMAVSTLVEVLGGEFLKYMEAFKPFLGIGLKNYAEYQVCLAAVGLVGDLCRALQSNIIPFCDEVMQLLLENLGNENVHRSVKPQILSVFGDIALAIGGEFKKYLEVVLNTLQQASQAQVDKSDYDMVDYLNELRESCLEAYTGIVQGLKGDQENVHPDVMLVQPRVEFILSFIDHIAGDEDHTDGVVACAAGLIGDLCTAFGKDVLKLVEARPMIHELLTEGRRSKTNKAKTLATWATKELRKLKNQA
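FRET biosensor Rango (snurportin 1 IBB between N-terminal EYFP and C-terminal Cerulean), 50 nM in PBS/1 mM DTT/0.02% Tween-20/0.1% BSA, preincubated 5 min RT with compound; 0.125 microM importin beta added, 45 min RT, CFP/YFP FRET ratio read.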
miR-21 reporter = raises the signal of a miR-21 reporter. HeLa miR-21 FLuc reporter, luciferase, 48 h. Potency, µM (doses to about 38.3 µM), without a hit: top-dose reporter change, positive = more light. 340,000 tested, under 10 active. AID 2288; active = well fitted rising curve with a large enough effect; inconclusive = small, poorly fitted or top-dose-only effect; inactive = no such curve, though single readings can be large or run the other way;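 also: % of control where 0% means no effect; miR-21 action dims this reporter so a rising signal means less miR-21 action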
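HeLa miR-21-FLuc reporter line, endogenous miR-21; 2000 cells/well in DMEM/10% FBS; compound titration up to ~40uM final, 48 h, 37 degree Celsius; luciferase detection reagent, 15 min lysis, CCD luminescence.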
Rango release inh = prevents RanGTP from dissociating the Rango-importin beta complex | actives 0.071% (n = 340,000) | O95149+P62826 | Biochemical FRET Rango-importin beta, RanGTP-induced dissociation | Potency, µM (highest dose often 46.1 µM), inactives show at the top dose activity change, negative = inhibition | AID 540253; active means falling FRET ratio curve, often poorly fitted, with flat reads before Ran was added; inconclusive means other falling curves, or compound fluorescence or quenching; inactive means flat or rising ratio curve;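 also: potency is read from the fitted curve at half-maximal effect; % of control where 0% means no effect; nearly all actives have a fitted effect of over 45% in size; -100% = wells without RanGTP and RCC1; the record marks most hits as doubtful in a second field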
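Rango FRET biosensor (snurportin-1 IBB flanked by N-terminal EYFP and C-terminal CFP10) at 0.1 uM, with 0.25 uM importin beta in PBS, 1mM DTT, 0.02% Tween-20, 0.1% BSA. 0.6 uM Ran, 2mM GTP and 0.2 uM RCC1 were then added for 45 min at room temperature. Inhibition read as loss of FRET rise.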
Starred values were filed as active, the others as inactive; u = inconclusive; x = not tested or not shown; & = joins results of further samples.

GLA inh pH 4.5	Rango complex inh	miR-21 reporter	Rango release inh	molecule
-12	u	-1%	u	COCCCNC(=O)C(C#N)c1nc2ccccc2nc1N1CCN(Cc2ccccc2)CC1 (stereo not drawn)
x	9.4%	x	12%	CN(CC(=O)Nc1ccccc1Br)C(=O)c1ccccc1Cc1ccccc1
0	-0.6%	0%	-8%	CCOc1nc(Nc2cc(Cl)ccc2OC)nc(OCC)n1
x	-3.4%	x	-8%	Cc1ccc(NC(=O)COc2cccc3c2OC(C)(C)C3)c(O)c1
x	-2.0%	-1%	-15%	O=C(NC1CCN(c2ncccn2)CC1)c1ccccc1Cl
5	2.0%	-7%	6%	CCOC(=O)N1CCN(Cc2nc3c(c(=O)[nH]c(=O)n3C)n2CCCc2ccccc2)CC1
-1	u	-45%	1%	COc1ccnc(CSC(N)=Nc2ccccc2OC)c1
7	-4.5%	3%	2%	CN(C)P(=NC(=O)COc1ccc(Cl)cc1Cl)(N(C)C)N(C)C
-1	-0.9%	-2%	-4%	Cc1cc(O)c(-c2cc(C(=O)Nc3sc4c(c3C(=O)NCc3ccco3)CCC4)[nH]n2)cc1C
5	-0.2%	-8%	0%	COc1ccc(OC)c(CNC(=O)CCNC(=O)Cn2ccc3ccccc3c2=O)c1
-5	-1.3%	0%	1%	CC12CN3CC(C)(CN(C1)C3c1cc(Br)ccc1O)C2=O (stereo not drawn)
1	4.3%	-10%	-11%	COc1cc2c(cc1OC)C(Nc1ccccc1)=NC(C)(C)C2
-1	-3.5%	16%	2%	O=C(Nc1sc2c(c1C(=O)O)CCCC2)c1cccs1
-6	-3.0%	-13%	-1%	CC(C)CCOc1ccc(Cl)cc1CN1CCOCC1
x	3.5%	x	15%	COc1ccccc1N(CC(=O)NCCN1CCOCC1)S(=O)(=O)c1ccc(C)cc1
x	4.5%	x	29%	CC1CCC(NC(=O)COC(=O)CNC(=O)c2ccc3ccccc3c2)CC1 (stereo not drawn)
7	u	0%	-12%	CC(=O)c1c(C)[nH]c(C2=NNC(=NCc3ccccc3)SC2)c1C
-5	0.7%	-1%	1%	CC(=O)N1CCc2c(sc3c2c(=O)n(-c2ccccc2)c(=O)n3Cc2ccccc2Cl)C1
-7	2.9%	1%	-14%	CCN(CC(=O)Nc1ccc(NC(C)=O)cc1)C(=O)c1n[nH]c(=O)c2ccccc12
7	1.5%	3%	0%	CC(=O)Nc1ccc(NC(=O)C(C)N2CCN(S(=O)(=O)c3ccc(C)cc3)CC2)cc1 (stereo not drawn)
x	-3.7%	-14%	-9%	O=C(CCC(=O)N1CCOc2ccc(Cl)cc21)NCc1ccccc1
-5	6.8%	-1%	11%	O=C1C=C(OCc2ccccc2)CN1
-9	1.8%	u	-5%	CN(Cc1ccccc1)S(=O)(=O)c1ccc(NC(=S)NC(=O)C2CCCCC2)cc1
6	0.0%	-23%	1%	Cc1ccc(OCC(=O)NNC(=O)c2ccoc2C)c(Br)c1
x	3.9%	8%&7%	6%	Cc1c(NC(=O)c2cc(-c3ccc(Br)cc3)on2)c(=O)n(-c2ccccc2)n1C

The last 2 compounds of the part before come first, to join the parts:
GLA inh pH 4.5	Rango complex inh	miR-21 reporter	Rango release inh	molecule
6	0.0%	-23%	1%	Cc1ccc(OCC(=O)NNC(=O)c2ccoc2C)c(Br)c1
x	3.9%	8%&7%	6%	Cc1c(NC(=O)c2cc(-c3ccc(Br)cc3)on2)c(=O)n(-c2ccccc2)n1C
8	x	-18%	x	Cc1ccc(NC(=S)NC(=O)c2sc3ccccc3c2Cl)c(C(=O)O)c1
x	-3.7%	x	3%	O=C(O)C1=C[C@H](c2ccc3c(c2)OCO3)C[C@H](OCc2ccc(CO)cc2)O1
-1	-4.0%	-8%	-9%	CCC(=O)N1CCN(c2ccccc2NC(=O)Cc2ccccc2)CC1
6	-1.5%	-23%	2%	C/C(=N/NC(=O)Nc1ccccc1)c1ccc(C)cc1
x	0.8%	x	3%	COc1ccc(N2CC(NS(=O)(=O)c3ccc4ccccc4c3)CC2=O)cc1OC (stereo not drawn)
-16	0.6%	-40%	8%	Cc1ccc(C2=NNC(c3cccc(F)c3)S2)cc1 (stereo not drawn)
x	0.0%	x	16%	CN(CC(=O)Nc1ccc(Cl)c(C(F)(F)F)c1)C(=O)c1ccccc1SCC(=O)N1CCCC1
x	0.0%	6%	0%	Cc1cccc(-c2nc(CS(=O)CC(=O)NC(C)CCc3ccccc3)c(C)o2)c1 (stereo not drawn)
-9	x	-1%	x	CCOC(=O)C1=NN(C(=O)c2cccc(Br)c2)C(O)(C(C)(C)C)C1 (stereo not drawn)
x	-3.7%	x	22%	CSc1ccc(CSCC(=O)N2CCN(S(=O)(=O)c3ccc(C)cc3C)CC2)cc1
6	0.6%	-4%	-17%	CC(Nc1cc(=O)n(C)c(=O)n1C)c1ccccc1 (stereo not drawn)
x	-0.4%	x	-15%	CCOc1ncccc1C(=O)Nc1cc2c(cc1Br)OCCO2
-4	0.0%	9%	-10%	N#C/C(=C\c1ccc(O)c([N+](=O)[O-])c1)C(=O)NCc1ccccc1
11	1.4%	-41%	1%	S=c1[nH]nc(Nc2ccccc2Cl)s1
x	1.2%	x	0%	CC(=O)Nc1ccccc1OCC(=O)NC1CCCCC1C (stereo not drawn)
x	-2.8%	x	25%	N#Cc1ccccc1S(=O)(=O)N1CCN(C(=O)CN2C(=O)NC3(CCCC3)C2=O)CC1
x	-1.8%	x	-6%	O=C(c1cccc([N+](=O)[O-])c1)N1CCN(c2ccc(N3CCOCC3)nn2)CC1
x	-0.1%	2%	-11%	Cc1cc(C(=O)Nc2sccc2C#N)c2ccccc2n1
-7	4.0%	-46%	-1%	O=C(CCSCc1ccccc1Cl)N1CCN(c2ccccn2)CC1
x	0.3%	1%	8%	CC(=O)NC12CC3CC(C1)CC(C(=O)N(C)Cc1cccc(Cl)c1Cl)(C3)C2
5	1.0%	-9%	-9%	Cc1noc(C)c1Cc1ccc(O)cc1
-14	3.7%	-9%	-3%	Cc1ccccc1-c1noc(C23CC4CC(CC(C4)C2)C3)n1
0	-0.6%	-2%	0%	O=C(CN1CCN(c2ccccc2)CC1)Nc1ccc2c(c1)OCCO2
4	x	-9%	x	CCn1c(SCC(=O)Nc2nc3c(s2)CCCC3)nc2c1c(=O)n(C)c(=O)n2C
1	0.1%	-7%	-7%	COC(=O)C1CC(O)CN1C(=O)c1ccco1 (stereo not drawn)

Some entries already given with just Rango complex inh:
SMILES	Rango complex inh
CSc1ccc(CSCC(=O)N2CCN(S(=O)(=O)c3ccc(C)cc3C)CC2)cc1	-3.7%
CC(Nc1cc(=O)n(C)c(=O)n1C)c1ccccc1 (stereo not drawn)	0.6%
CCOc1ncccc1C(=O)Nc1cc2c(cc1Br)OCCO2	-0.4%
N#C/C(=C\c1ccc(O)c([N+](=O)[O-])c1)C(=O)NCc1ccccc1	0.0%
S=c1[nH]nc(Nc2ccccc2Cl)s1	1.4%

Remaining list, next part.
GLA inh pH 4.5	Rango complex inh	miR-21 reporter	Rango release inh	molecule
2	-0.9%	0%	-16%	CCCC(C)NC(=O)c1c2c(nc3ccccc13)CCC2 (stereo not drawn)
6	1.8%	1%	3%	CN(Cc1ccccc1)C(=O)CSc1nc2cc(C(=O)N3CCC(C(N)=O)CC3)ccc2c(=O)n1-c1ccccc1
x	-1.9%	1%&0%	3%	CC(NC(=O)CCNS(=O)(=O)c1cccc2nsnc12)c1ccccc1 (stereo not drawn)
-5	u	-1%	3%	CN(c1ccccc1)S(=O)(=O)c1ccc(Cl)c(C(=O)OCC(=O)N2CCOCC2)c1
0	0.8%	-2%	0%	CC1(C)CC(=O)C(C(c2ccncc2)C2C(=O)CC(C)(C)CC2=O)C(=O)C1
x	0.0%	-1%	-5%	O=C(O)c1ccccc1Nc1cc(Cl)c2nonc2c1[N+](=O)[O-]
x	-2.2%	x	19%	CCN(CC)CCC(O)(c1ccc2c(c1)OCO2)c1cc(OC)c(OC)c(OC)c1 (stereo not drawn)
-8	3.4%	0%	-3%	COc1ccc(OC)c2c1sc(=NC(=O)C(C)C)n2C
x	1.2%	4%	1%	Cc1cc(-c2ccc(S(=O)(=O)N3CCN(c4ccccc4F)CC3)s2)on1
-3	0.1%	-27%	5%	CO/N=C/CC(=O)c1cnc(-c2ccc(Cl)cc2)s1
5	3.7%	-9%	35%	O=C(O)COc1ccc(S(=O)(=O)NCCc2ccccc2)cc1
-11	u	-4%	2%	O=c1[nH]c2ccc(S(=O)(=O)N3CCCCC3)cc2[nH]c1=O
7	-0.7%	3%	13%	COc1ccc(CCn2nnnc2C(CC(C)C)N2CCN(c3ncccn3)CC2)cc1OC (stereo not drawn)
-1	0.1%	0%	1%	O=C(/C=C/c1cccc([N+](=O)[O-])c1)Nc1cc(C(=O)O)cc(C(=O)O)c1
x	6.5%	x	14%	Cc1cccc(NC(=O)CSCC(=O)Nc2ccc(S(=O)(=O)N3CCCCC3)cc2)c1
x	0.6%	1%	-10%	O=C(Oc1ccccc1)N1CCN(C(=O)c2ccco2)CC1
x	-1.2%	x	12%	COc1cc(C(=O)OCC(=O)N2CCC(Cc3ccccc3)CC2)cc(OC)c1OC
-6	u	-1%	-21%	CCOC(=O)N1CCN(C(=O)CN(Cc2ccc(Cl)cc2)S(C)(=O)=O)CC1
6	-1.4%	-4%	9%	COCCNc1nc2ccccc2nc1NS(=O)(=O)c1ccc(C)cc1C
-29	3.0%	-5%	5%	COc1ccccc1NC(=O)C(C)Nc1ccc(C)c(Cl)c1 (stereo not drawn)
x	0.5%	x	-3%	O=C(OCC(=O)N1CCCC1)c1cc2c(cc1[N+](=O)[O-])OCCO2
x	-2.9%	x	9%	COc1ccc(N(C)S(=O)(=O)c2cccc(C(=O)OCC(=O)c3c(N)n(C)c(=O)n(C)c3=O)c2)cc1
7	-2.8%	0%	5%	CCn1c(SCC(=O)Nc2ccccc2C(=O)OC)nnc1-c1cccc(C)c1
x	0.1%	x	-4%	CC(=O)c1c(C)[nH]c(C(=O)OCC(=O)Nc2ccc3c(c2)OCCO3)c1C
5	3.7%	0%	-9%	Cc1nn(-c2nc(-c3ccco3)cc(C(F)(F)F)n2)c(C)c1Cl
-2	0.0%	-5%	-1%	O=C(O)CC(NC(=O)C1c2ccccc2Oc2ccccc21)c1ccc(Cl)cc1 (stereo not drawn)
x	-0.1%	x	14%	O=S(=O)(Nc1cccc(S(=O)(=O)N2CCCCCC2)c1)c1ccc(F)cc1F
x	-1.8%	x	-13%	CC(CCN1CCC(CN2C(=O)C(=O)NC[C@@H]2Cc2ccccc2)CC1)c1ccccc1 (stereo partly drawn)
x	-1.0%	x	19%	CC(C)(C)[C@H]1COC(=O)CCCC/C=C\C[C@H](CC(=O)N(CCO)Cc2ccccc2)C(=O)N1
7	u	0%	-12%	CCOCC(=O)OCC(=O)Nc1cc(OC)c([N+](=O)[O-])cc1C
0	0.0%	8%	2%	COc1ccc(CCNC(=O)C2CCN(S(=O)(=O)c3ccc(Cl)cc3)CC2)cc1OC
-4	-0.1%	-6%	-8%	CCOC(=O)N1CCN(C(=O)C2CC(c3ccc(F)cc3)=NO2)CC1 (stereo not drawn)
x	-1.8%	x	2%	CCc1noc(C)c1C(=O)Nc1ccc(S(=O)(=O)N2CCC(C)CC2)cc1
x	-2.4%	x	9%	CCC1(OC(=O)CN(C)C)C(=O)OCc2c1cc1n(c2=O)Cc2cc3c(N)cccc3nc2-1 (stereo not drawn)
u	u	-12%	u	Cc1ccc(-c2cc(C(=O)O)c3sc(N4CCCCC4)nc3n2)cc1
-2	u	1%	-8%	COc1ccc(CC(=O)Nc2cccc(-c3ccc4nnc(C)n4n3)c2)cc1
-7	0.1%	2%	-2%	Cc1ccc(S(=O)(=O)Cn2nnnc2C(c2ccccc2)N2CCN(c3ccccc3)CC2)cc1 (stereo not drawn)
-5	0.0%	-18%	-9%	NC(=O)Cc1ccc2c(c1)[nH]c1ccccc12
x	0.0%	x	0%	COc1ccc(CCNC(=O)COC(=O)c2ccccn2)cc1
x	4.0%	x	8%	COc1ccccc1C(=O)N/N=C(\C)c1cccnc1
x	0.2%	x	9%	O=C(c1ccc(Cl)cc1)N1CCN(S(=O)(=O)/C=C/c2ccccc2)CC1

Source: PubChem (National Center for Advancing Translational Sciences (NCATS))

Not all compounds are listed (hit frequency here may not be typical).
